Mtb betalactam: beta-lactam sensitization of Mtb H37Rv | M. tuberculosis H37Rv growth with meropenem, percent inhibition; hits of this screen are not shown here | AID 434955 | 330,000 compounds, 0.27% hits | inhibition, % at 25 µM;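 active = about 74% or more and at least 40 points above the plate without the antibiotic, then above 30% in a dose series; inconclusive = first-round hits that could not be retested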;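 also: growth measured after seven days incubation then overnight dye step; 0% = bacteria only wells and 100% = bacteria with antibiotic; twin plates without the antibiotic show which effects depend on it; some results filed as inactive read as strong as hits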
Mtb growth: M. tuberculosis H37Rv growth inhibitors, H37Rv strain (AID 1626). inhibition, % at 10 µM; hits with a dose series show IC50 in µM. M. tuberculosis H37Rv growth inhibition; higher % means a stronger effect. 220,000 compounds, 0.95% hits;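 active = confirmed in a dose series; inconclusive = inhibition above 80% but not taken into the dose series; inactive = below 80% or under 30% at every dose of the series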;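 also: bacteria incubated seven days before Alamar blue readout; 0% = bacteria only wells and 100% = bacteria with antibiotic wells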
Arbovirus inh: blocks arbovirus infection | arbovirus infection cell-based antiviral screen | 200,000 compounds, 0.37% hits | AID 1251 | inhibition, % at 10 µM;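 active = inhibition from about 30%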;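 also: bluetongue infection of BSR cells; cell survival read as ATP light after 72 h; 0% = infected wells without compound and 100% = uninfected wells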
RecA splice inh: Mtb RecA intein splicing inhibition | P9WHJ3 | 290,000 compounds, 0.75% hits | inhibition, %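 (about 9 µM by stock and volumes)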 | cell-free RecA intein splicing, fluorescence; in the data active = inhibition above about 30%; inconclusive = no clear call, values can overlap the other calls;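 also: 0% = vehicle wells and 100% = reference inhibitor control wells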
Target sequence (P9WHJ3 whole entry, looked up, canonical isoform): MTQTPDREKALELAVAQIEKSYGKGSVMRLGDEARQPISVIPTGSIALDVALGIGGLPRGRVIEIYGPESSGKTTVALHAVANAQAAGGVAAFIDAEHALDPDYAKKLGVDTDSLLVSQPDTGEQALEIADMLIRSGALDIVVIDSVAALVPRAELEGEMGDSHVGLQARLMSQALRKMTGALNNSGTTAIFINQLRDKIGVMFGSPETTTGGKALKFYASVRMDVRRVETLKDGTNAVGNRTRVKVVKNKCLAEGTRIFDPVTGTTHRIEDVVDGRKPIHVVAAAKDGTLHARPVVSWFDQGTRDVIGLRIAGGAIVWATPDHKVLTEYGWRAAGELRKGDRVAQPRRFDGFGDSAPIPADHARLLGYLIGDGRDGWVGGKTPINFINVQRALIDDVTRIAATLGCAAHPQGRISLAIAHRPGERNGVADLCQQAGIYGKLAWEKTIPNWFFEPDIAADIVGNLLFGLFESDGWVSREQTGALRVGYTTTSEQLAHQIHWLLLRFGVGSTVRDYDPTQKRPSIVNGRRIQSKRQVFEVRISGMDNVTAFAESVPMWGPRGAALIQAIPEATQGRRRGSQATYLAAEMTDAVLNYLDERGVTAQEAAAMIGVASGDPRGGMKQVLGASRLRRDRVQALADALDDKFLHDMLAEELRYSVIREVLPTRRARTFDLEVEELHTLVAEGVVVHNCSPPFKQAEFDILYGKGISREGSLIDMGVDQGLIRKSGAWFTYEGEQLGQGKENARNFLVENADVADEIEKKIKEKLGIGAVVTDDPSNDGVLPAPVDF
YopH PTP inh: blocks Yersinia enterocolitica YopH tyrosine phosphatase. inhibition, %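 (about 10 µM by stock and volumes)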. 140,000 compounds, 0.16% hits. fluorescence Ex485/Em525. AID 898;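 active = inhibition of 50% or more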;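 also: controls were vehicle for no effect and minimum signal wells for full effect; inactives centre near -20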
Arbovirus inh repeat: second read-out of Arbovirus inh, no call of its own (marks repeat the call); inhibition, %; measured here: 10K subset replicate screen; many hits read low in the repeat;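 first of two repeat runs on a subset; 0% = infected and 100% = uninfected wells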
Active calls of the source: *; ? = inconclusive; . = not tested or not shown. Some of the compounds tested; count on the stated rates, not on these rows.

SMILES | Mtb betalactam | Mtb growth | Arbovirus inh | RecA splice inh | YopH PTP inh | others
O=C(NCC(c1cccnc1)N1CCN(c2ccc(F)cc2)CC1)OCc1ccccc1 (configuration not stated) | -13 | 11% | -1 | -3.1 | 2
CCOC(=O)c1c(C)[nH]c(C)c1C(=O)CSc1nc2ccccc2c(=O)n1-c1ccc(C)cc1 | 17 | 22% | 0 | 11 | -4
COc1ccc(C(=O)OCC2CC(c3ccccc3)=NO2)cc1OC (configuration not stated) | -3 | -2% | -1 | 1.3 | .
Cc1cccc(C)c1NC(=O)C1C2C=CC(C2)C1C(=O)O (configuration not stated) | 3 | . | . | 0.2 | .
O=C(NC1CCCC1)c1csc2c1CCCC2 | -6 | 13% | -1 | 3.2 | -48
CCOC(=O)C(=CNc1cc(C)ccn1)C(=O)OCC | 5 | -2% | -8 | 3.8 | -22
COc1ccccc1-c1nnc(SCC(=O)Nc2ccccc2)o1 | -3 | 0% | 11 | -2.5 | -26
N#CCc1nn(-c2ccccc2)c(N)c1C#N | -9 | -6% | 3 | 8.5 | -33
COc1ccc(S(=O)(=O)CCc2nnc(NC(=O)c3ccc(F)cc3)s2)cc1 | -3 | . | . | 1.7 | .
O=S(=O)(NCC1CCCO1)c1ccc(Cl)nc1 (configuration not stated) | -5 | -14% | . | -0.1 | .
Cc1ccc(SC[C@H](Cc2ccccc2)N2CCN(CCc3ccccc3)CCC2=O)cc1 | 13 | 6% | . | 3.8 | .
COC(=O)C1=C(CS(=O)(=O)c2ccccc2)NC(=O)NC1c1ccc(O)cc1 (configuration not stated) | -4 | . | . | -1.1 | .
CCOc1nc(C)nc(NC(=O)NS(=O)(=O)c2ccccc2Cl)n1 | 2 | . | 7 | -4.2 | 20
CC(C)n1c(-c2ccccc2)nc(=S)c2c1CCCC2 | -2 | 0% | 5 | . | -42
Cc1ccc2nc(COc3ccc(N(C)S(=O)(=O)c4ccccc4)cc3)cc(=O)n2c1 | -3 | 2% | 6 | -11 | .
C(CCc1nn[nH]n1)CCc1nn[nH]n1 | -6 | -7% | -1 | -1.7 | -25
O=C(NNC(=O)c1cc(-c2cccc(Br)c2)nc2ccccc12)c1csc(N2CCOCC2)n1 | 69 | . | . | 7.4 | .
CCc1cc(Cn2nc(-c3ccccc3)cc2C(=O)NCc2ccccc2OC)on1 | 3 | . | . | -0.1 | .
Cc1ccc(CNC(=O)Cc2ccc(-n3cccc3)cc2)cc1 | -9 | 8% | -11 | -0.4 | -14
COC(=O)c1c(C)[nH]c(C)c1C(C)=O | -15 | -9% | . | -0.2 | .
Cc1cccc(NCc2nc3ccccc3n2C)c1 | 1 | -1% | -4 | -0.1 | -12
Cc1nc(SCc2cccc(Oc3ccccc3)c2)n[nH]1 | -4 | 6% | -1 | 2.6 | -8
Cn1c(/C=C/c2ccccc2)nc2ccccc2c1=O | -2 | . | . | 0.4 | .
COCCCn1cc(C(=O)c2cc(Br)ccc2O)cc(C#N)c1=O | -1 | 7% | 0 | 0.9 | .
Cc1nc(-c2nc(-c3c(C(=O)NN)noc3C)cs2)cs1 | 4 | 3% | 0 | 5.4 | .
CCC(=O)Nc1c2c(nn1-c1cccc(Cl)c1)CSC2 | 6 | . | 18 | -2.1 | -15 | Arbovirus inh repeat=0
CCCC1Cc2nc(N3CCCCC3)c(C#N)cc2CO1 (configuration not stated) | -4 | 11% | -28 | 4.8 | -40
Cc1nn(-c2ccccc2)c2c1c(C)c(CCC(=O)N1CCOCC1)c(=O)n2C | -2 | . | . | -1.0 | .
CCOC(=O)c1csc(NC(=O)CN2CCCCC2)n1 | 4 | . | . | -0.3 | .
O=C(Cn1cnc2cc([N+](=O)[O-])ccc2c1=O)Nc1ccc2c(c1)CCC2 | -2 | -2% | -2 | -2.8 | -6
Cc1ccc(-c2cc(-c3ccccc3)nc(N/N=C/c3cccnc3)n2)cc1 | ? | ? | . | 7.6 | -17
Cn1c(C(=O)OC(C(=O)NC(C)(C)C)c2cccnc2)cc2sccc21 (configuration not stated) | -4 | -11% | -1 | 0.8 | .
CCOC(=O)c1cnn(-c2ncnc3sc4c(c23)CCC4)c1N | . | 2% | 5 | 1.9 | -37
NNC(=O)c1ccccc1CO | -7 | -8% | . | -1.8 | .
S=C(NCCNC(=S)Nc1ccccc1Cl)Nc1ccccc1Cl | 2 | . | . | 0.5 | .
COc1ccc2[nH]c3c(NCCC4=CCCCC4)ncnc3c2c1 | . | 51% | -23 | 7.0 | .
CCOC(=O)C1CCN(C(=O)c2cccc(S(=O)(=O)Nc3ccc(C)cc3C)c2)CC1 | 3 | -6% | 4 | 1.5 | .
Cc1cccc(C(=O)NCc2nnc(SCc3ccc(F)cc3)n2C)c1 | 2 | 1% | -4 | 0.5 | .
Cc1ccc(C(=O)NCc2ccc3c(c2)OCO3)cc1S(=O)(=O)N1CCCCC1 | -12 | -7% | 0 | . | -35
CCc1ccc(C2=NN(c3ccc(S(N)(=O)=O)cc3)C(c3ccc(F)cc3)C2)cc1 (configuration not stated) | 97 | 17% | -39 | -33 | -24
Cc1ccc(NC(=O)c2nc(S(=O)(=O)Cc3ccccc3)ncc2Cl)cc1 | 77 | . | . | 66* | .
O=C(NNc1cc(Cl)ccc1Cl)c1cccnc1Cl | -2 | ? | -30 | -2.7 | .
Cc1cccc(C)c1NC(=S)N=Nc1c(O)n(C)c2ccc(S(=O)(=O)N3CCOCC3)cc12 | 9 | -1% | -3 | 46* | -18
Fc1ccc(CSc2nnc(-c3cnccn3)n2Cc2ccco2)cc1 | 3 | 1% | -5 | -2.9 | -5
Nc1nc(SCC(=O)N2CCCCC2)[nH]c(=O)c1NC(=O)c1ccccc1F | -6 | . | . | -2.7 | .
COc1cc(/C=N/NC(=O)C2COc3ccccc3O2)cc(OC)c1OC (configuration not stated) | -5 | -6% | 3 | 1.5 | -31
CCCCNC(=O)Cc1ccc(Br)cc1 | 7 | -4% | -7 | . | .
COc1cc(S(=O)(=O)NCc2ccncc2)c(OC)cc1Cl | -3 | 2% | -5 | -0.3 | .
O=C(c1cn(-c2ccccc2)nc1-c1ccc(F)cc1)N1CCCCC1 | 11 | 8% | -4 | 4.1 | -32
CCOC(=O)c1c2c(n(C)c1C)C(=O)C(=O)c1ccc(Br)cc1-2 | ? | 29% | . | 23 | 88*
CCOC(=O)/C(C#N)=C/c1cccn1-c1ccc(Cl)cc1 | -2 | -1% | . | 0.6 | .
O=C1CCc2cc(S(=O)(=O)NCc3ccccc3Cl)cc3c2N1CC3 | -7 | . | . | 3.5 | .
COC(=O)c1ccc(Oc2ccc3nnc(C)n3n2)cc1 | 10 | -1% | 23 | -0.2 | -32
CCn1cnc2cc(NCc3cccc(OC)c3O)ccc21 | -2 | 78% | 8 | -17 | -10
CCN(Cc1ccccc1)C(=O)C(C)OC(=O)c1cc(S(=O)(=O)Nc2c(C)n(C)n(-c3ccccc3)c2=O)ccc1C (configuration not stated) | -1 | -9% | -1 | 1.5 | .
Cc1nnsc1-c1nnc(SCC(=O)c2ccc(C#N)cc2)n1C1CC1 | 30 | -12% | . | -0.2 | .
CCCCCC(=O)Nc1ccc(S(=O)(=O)Nc2nccc(C)n2)cc1 | -5 | 2% | -1 | . | .
Oc1ccc(/C=N/Nc2ncnc3c2ncn3Cc2ccccc2)cc1O | -4 | 9% | -39 | -8.3 | -18
O=C(Cn1cc([N+](=O)[O-])cn1)N1CCc2ccccc21 | 7 | -4% | -5 | . | -23
CCC(=O)N(Cc1cc2ccc(C)cc2n2nnnc12)C1CCCCC1 | 9 | 0% | -14 | -0.6 | -9

Other results follow:
SMILES | Mtb betalactam | Mtb growth | Arbovirus inh | RecA splice inh | YopH PTP inh | others
CCc1nc(SCC(=O)Nc2ccc(OC)cc2[N+](=O)[O-])n[nH]1 | -3 | -2% | . | 0.1 | .
COc1ccc(S(=O)(=O)NC2CCCCC2)cc1C | -8 | 5% | 4 | 1.0 | -127
CSc1ncccc1C(=O)NC(C)CCc1ccccc1 (configuration not stated) | 6 | . | . | -11 | .
COc1ccc(-c2ccc(SCC(=O)c3ccc(F)cc3)nn2)cc1OC | -2 | 0% | -4 | 3.5 | .
COc1cc(/C=C2\SC(=S)N(CCC(=O)Nc3ccccn3)C2=O)cc(OC)c1OC | 91 | . | . | 7.9 | .
COCCOC(=O)c1c(NC(=O)CN2CCOCC2)sc(C(N)=O)c1C | -1 | 6% | 7 | 1.7 | -12
O=C(CC(C(=O)O)C1CCCO1)Nc1cccc(C(F)(F)F)c1 (configuration not stated) | -4 | -13% | 2 | 2.3 | -58
Cc1ccc(S(=O)(=O)N(CC(=O)N2CCN(c3ccc(F)cc3)CC2)C2CCCCC2)cc1 | 3 | -1% | -18 | 9.2 | 3
O=C(COC(=O)CSCC(=O)N1CCCCC1)NCc1ccc(F)cc1 | -9 | -1% | -1 | 2.0 | -31
CCOc1ccc(N/C(N)=N/c2nc(C)c(C)c(=O)[nH]2)cc1 | -4 | . | . | -1.4 | .
Cc1noc(NS(=O)(=O)c2ccc(NC(=O)CSc3nc4ccccc4[nH]3)cc2)c1C | -2 | 1% | 6 | -2.2 | -24
Clc1ccc(Nc2cc(-c3ccccc3)nc3ncnn23)cc1 | -5 | -6% | . | 5.3 | .
Cc1ccc(CN(Cc2cc3cccc(C)c3[nH]c2=O)C(=O)N(C)C)cc1 | 4 | -3% | . | -0.5 | .
COc1ccccc1C(=O)NCCC(=O)N1CC=C(c2ccccc2)CC1 | -1 | . | . | 0.2 | .
C=CCNC(=O)c1onc(CSc2ccccc2CC)c1C(=O)O | 3 | -14% | 11 | -2.7 | 10
Cc1noc(C)c1S(=O)(=O)N1CCN(C(c2ccccc2)c2ccc(Cl)cc2)CC1 (configuration not stated) | 0 | 17% | -9 | 4.5 | -49 | Arbovirus inh repeat=-4
CCCCS(=O)(=O)N1CCN(S(=O)(=O)c2ccc(Cl)s2)CC1 | 4 | . | . | -1.1 | .
O=C(CCc1ccncc1)N1CCCC(Nc2ccc(F)cc2)C1 (configuration not stated) | -17 | . | . | 1.6 | .
CCN(CC)CCOc1ccc(/C(=C(\Cl)c2ccccc2)c2ccccc2)cc1 | 99 | . | . | 36* | .
COc1ccc(N2CCN(C3CC(=O)N(c4ccc5c(c4)OCCO5)C3=O)CC2)cc1 (configuration not stated) | -5 | -5% | 2 | -3.6 | -8
S=C1NCCOCCNC(=S)NCCOCCOCCOCCN1 | -4 | -1% | -1 | -2.1 | -18
O=C(/C=C/c1cccs1)N1CCCCC1 | 5 | 13% | 5 | -0.6 | .
Cc1[nH][nH]c(=O)c1C(c1ccc(O)c([N+](=O)[O-])c1)c1c(C)[nH][nH]c1=O | 4 | 3% | -9 | -3.4 | -20
C#CCOCCOCCOCCNc1nc(N2CCN(C(=O)C([C@@H](C)CC)n3cc(C(N)CO)nn3)CC2)nc(N2CCN(C(=O)[C@H](CCC(=O)O)n3cc(C(N)CC(C)C)nn3)CC2)n1 (some centres not stated) | 0 | . | 3 | -1.8 | .
COc1ccc(NC(=O)c2ccc(C(=O)c3cc(OC)ccc3OC)cc2)cc1 | -4 | -5% | 1 | 1.1 | -30
O=C(NCC1CC1)c1ccccc1Cl | -2 | . | . | 2.1 | .
O=C(CCNC(=O)C1CCN(S(=O)(=O)c2ccccc2)CC1)NCc1cccc(C(F)(F)F)c1 | -9 | . | . | -0.4 | .
Cc1cc(C)nc(SCNC(=O)c2ccc(Cl)cc2)n1 | 1 | 5% | -3 | 0.0 | -31
O=C(O)C[C@H]1c2ccccc2S(=O)(=O)N1c1ccccc1 | 0 | 12% | . | 1.6 | .
CCCCCNC(=O)c1ccc2c(=O)n(CC3CCCO3)c(=O)[nH]c2c1 (configuration not stated) | -1 | 0% | 4 | 2.1 | -39

Compound activity as filed in PubChem BioAssay.
